High-throughput results deposited in PubChem BioAssay by National Center for Advancing Translational Sciences (NCATS).
Rango complex inh: Rango-importin beta binding inhibition; Rango CFP/YFP FRET sensor + importin beta, 45 min; Potency, µM (top dose mostly 92.2 µM), for inactives: at the highest dose inhibition of complex formation; actives 0.031% (n = 340,000); AID 540263; active = rising FRET ratio curve, often small or poorly fitted; inconclusive = mostly compound fluorescence or quenching in the first reads; inactive = flat curves in all reads;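 further: potency means the concentration at half of the fitted maximal effect; 0% = DMSO wells and 100% = buffer wells lacking importin beta; nearly all actives have a fitted effect of over 15% in size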
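FRET biosensor Rango (snurportin 1 IBB between N-terminal EYFP and C-terminal Cerulean), 50 nM in PBS/1 mM DTT/0.02% Tween-20/0.1% BSA, preincubated 5 min RT with compound; 0.125 microM importin beta added, 45 min RT, CFP/YFP FRET ratio read.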
GLA inh pH 4.5: blocks human alpha-galactosidase A at pH 4.5 | 230,000 tested, under 10 active | AID 1467 | purified enzyme, 4-MU-alpha-Gal fluorescence, pH 4.5 | activity change, negative = inhibition, % at 105 µM; inconclusive = small, poorly fitted or top-dose-only inhibition, or a rising curve; inactive = flat fitted curve, though single readings scatter; no compound was filed as active;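 further: 0% = full activity with enzyme and -100% = basal without enzyme; dose as in the result columns while the protocol names 77 µM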
Target sequence (P06280 whole entry, looked up): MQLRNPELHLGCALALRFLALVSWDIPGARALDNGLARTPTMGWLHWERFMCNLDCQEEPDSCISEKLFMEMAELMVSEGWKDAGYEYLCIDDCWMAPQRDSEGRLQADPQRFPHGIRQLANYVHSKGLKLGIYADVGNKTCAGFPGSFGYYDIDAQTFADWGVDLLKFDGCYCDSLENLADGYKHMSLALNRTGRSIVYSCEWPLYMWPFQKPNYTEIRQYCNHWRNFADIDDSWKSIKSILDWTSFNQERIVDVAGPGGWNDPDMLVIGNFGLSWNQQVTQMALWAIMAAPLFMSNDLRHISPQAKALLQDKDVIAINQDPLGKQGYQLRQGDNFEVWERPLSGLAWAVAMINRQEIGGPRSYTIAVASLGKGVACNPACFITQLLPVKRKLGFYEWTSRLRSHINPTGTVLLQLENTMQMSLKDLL
miR-21 reporter: miR-21 reporter, rising signal; HeLa miR-21 FLuc reporter, luciferase, 48 h; Potency, µM (top dose mostly 38.3 µM), for inactives: top-dose reporter change, positive = more light; 340,000 tested, under 10 active; AID 2288; active = well fitted rising curve with a large enough effect; inconclusive = small, poorly fitted or top-dose-only effect; inactive = no such curve, though single readings can be large or run the other way;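 further: % of control where 0% means no effect; miR-21 action dims this reporter so a rising signal means less miR-21 action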
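Compounds were titrated across several concentrations (up to approximately 40 uM) and incubated 48 hours with HeLa miR-21-FLuc reporter cells (miR-21 target sequence downstream of FLuc, endogenous miR-21). Readout was firefly luciferase luminescence after lytic detection reagent.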
Rango release inh: inhibitors of RanGTP-induced Rango-importin beta complex dissociation. O95149+P62826. Potency, µM (series often up to 46.1 µM), inactives show at the top dose activity change, negative = inhibition. Biochemical FRET Rango-importin beta, RanGTP-induced dissociation. actives 0.071% (n = 340,000); active means falling FRET ratio curve, often poorly fitted, with flat reads before Ran was added; inconclusive means other falling curves, or compound fluorescence or quenching; inactive means flat or rising ratio curve;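 further: potency means the concentration at half of the fitted maximal effect; % of control where 0% means no effect; nearly all actives have a fitted effect of over 45% in size; -100% = wells without RanGTP and RCC1; the record marks most hits as doubtful in a second field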
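Compounds preincubate 5 min with complex of recombinant Rango and importin beta in PBS with 1 mM DTT. Ran (0.6 uM) loaded with 2 mM GTP plus 0.2 uM RCC1 starts dissociation; FRET is recorded 45 min later.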
The depositor's hits bear a star; ? = inconclusive; . = not tested or not shown; & = joins results of further samples. A portion of the library; rates above refer to the full screens.

SMILES | Rango complex inh | GLA inh pH 4.5 | miR-21 reporter | Rango release inh
CC/C(=N\n1nnnc1Nc1ccccc1)c1ccccc1 | 5.3% | -15 | -4% | -4%
Cn1nnc(-c2ccc(OCc3ccccc3F)cc2)n1 | -0.1% | 7 | -50% | -2%
COc1cccc(-c2cccc(NC(=O)C3CCN(CC4CCOC4)CC3)c2)c1 (stereo unspecified) | -1.2% | . | 0% | 1%
Cc1ccc(SCC(=O)c2c(C)nc3ccccn23)cc1 | -2.9% | -8 | -20% | 2%
COc1ccccc1C(=O)NNC(=S)Nc1ccccc1 | 0.1% | -5 | -22% | -7%
Nc1c2nc(-c3ccccc3)[nH]c(=O)c2nc(=O)n1-c1ccccc1 | ? | ? | 7% | 0%
O=C(Cc1ccccc1)N/N=C/c1ccc([N+](=O)[O-])s1 | 1.1% | -1 | 20% | 17%
O=C(Cc1cc(=O)[nH][nH]1)N/N=C/C(Cl)=C/c1ccccc1 | -2.3%&5.8% | -20&-7 | -3%&1% | 18%&9%
O=c1c2ccccc2nnn1CSc1nnc(-c2ccco2)o1 | -4.8% | 0 | -32% | -9%
Cc1coc2c(C)c3oc(=O)c4c(c3cc12)CCCC4 | ? | -7 | -1% | ?
C[C@H](Cc1ccccc1)Nc1ncnc2c1ncn2[C@@H]1O[C@H](CO)[C@@H](O)[C@H]1O | 1.2% | . | . | -10%
C/C(=N\NC(=O)COc1ccccc1-c1ccccc1)c1cccnc1 | -0.7% | 0 | 15% | 0%
O=[N+]([O-])c1ccc(-c2csc(N3CCc4ccccc4C3)n2)cc1 | 5.1% | -3 | -7% | 0%
COc1ccc(C(CNC(=O)CN(C)S(=O)(=O)c2ccc(C)cc2)N2CCCC2)cc1 (stereo unspecified) | -0.6% | . | . | 9%
Cc1cccc(N2CCN(C(=O)C3CCC(=O)N(Cc4ccccc4F)C3)CC2)c1C (stereo unspecified) | -0.1% | . | 7% | 0%
CCCc1nc(SCC(=O)Nc2nccs2)c2ccccc2n1 | -1.6% | . | -1% | -3%
CCN1CCN(c2nc(-c3ccc(F)cc3)cc(=O)[nH]2)CC1 | -0.9% | . | -2% | 2%
CC1=C(C(=O)NCc2ccccc2)C(c2cc(Br)cc(Br)c2OC(C)C)NC(=O)N1 (stereo unspecified) | 2.0% | -25 | 1% | -1%
COc1ccc(C2=NN(C(=O)C(O)c3ccccc3)C(O)(C(F)(F)F)C2)cc1 (stereo unspecified) | 0.6% | . | -8% | -4%
Cc1cc(C)cc(NC(=O)CSCc2cnn(-c3ccccc3)c2-n2cccc2)c1 | -3.1% | -5 | 5% | 14%
COc1ccc(-c2cc3ccc(OC)cc3cn2)cc1 | -1.3% | . | . | 7%
CC(=O)N1CCc2cc(S(=O)(=O)C(C)CC(=O)Nc3ccc(OC(F)(F)F)cc3)ccc21 (stereo unspecified) | 1.7% | . | -10% | -11%
NC(=O)c1ccsc1NC(=O)COC(=O)c1ccc(Cl)c(N)c1 | -1.1% | . | . | -21%
COCCN(C(=O)COC(=O)C1CC1C)c1c(N)n(Cc2ccccc2)c(=O)[nH]c1=O (stereo unspecified) | 3.7% | . | . | -1%
CCOc1ncccc1C(=O)NCCN1C(=O)S/C(=C/c2cccs2)C1=O | -0.3% | -4 | -9% | 6%
(list continues)
SMILES | Rango complex inh | GLA inh pH 4.5 | miR-21 reporter | Rango release inh
O=C(NCc1ccccc1Cl)c1cc2ccccc2oc1=O | -2.5% | . | -11% | 4%
O=C1CN(S(=O)(=O)c2ccc(F)cc2)CCN1 | 2.2% | . | . | -1%
CC(C)(C)c1cc(CCC(=O)NNC(=O)c2ccncc2)cc(C(C)(C)C)c1O | 1.5% | . | . | -6%
COCCN(C(=O)Cc1cccs1)C(C(=O)NCc1ccc(OC)cc1)c1ccc(C)cc1 (stereo unspecified) | -2.8% | 3 | 15% | 17%
CC(C)(C)c1ccc(OCCC(=O)Nc2cccc(S(=O)(=O)N3CCOCC3)c2)cc1 | 3.4% | . | 25% | -3%
CCN1C[C@@H]2[C@@H]3C(=O)N(C)C(=O)[C@@H]3[C@](CC)(C1=O)N2C(=O)c1ccc(C)cc1 | -1.7% | . | . | -5%
Cc1ccc(NS(=O)(=O)c2cccc3nsnc23)cc1[N+](=O)[O-] | -0.5% | . | -9% | 0%
C/C(=N\NC(=O)c1ccc(OC2OCCOC2Oc2ccc(C(=O)N/N=C(\C)c3ccncc3)cc2)cc1)c1ccncc1 (stereo unspecified) | 0.1% | -8 | -1% | 23%
Cc1nnsc1Sc1ccccc1C(=O)O | 0.6% | 0 | 3% | -13%
COCc1ccc2oc(C(=O)O)cc2c1 | 0.9% | -3 | -6% | 15%
CC(=O)Oc1cccc(N2C(=O)c3cccc4c([N+](=O)[O-])ccc(c34)C2=O)c1 | ? | . | 1% | 1.8µM*
CCCCn1c(-c2ccc(OC(F)F)cc2)nc2c1c(=O)[nH]c(=O)n2CC(C)C | -1.1% | . | 0% | -2%
Cc1ccn2c(C(=O)N/N=C\c3ccc4c(c3)OCO4)c(C)nc2c1 | 3.6% | 1 | -22% | 1%
COc1cc(S(=O)(=O)Nc2ccccc2C(=O)N2CCCC2)ccc1NC(C)=O | -1.2% | . | . | -1%
COC(=O)c1ccc(OC(=O)c2ccccn2)cc1 | -0.4% | 0 | 1% | -15%
O=C(C1=C(O)C(=O)N(CCN2CCOCC2)C1c1ccncc1)c1ccco1 (stereo unspecified) | ? | -9 | -6% | -5%
CCC(=O)N(Cc1cc2cc(OC)ccc2[nH]c1=O)c1ccc(C)cc1 | 0.3% | . | 5% | 6%
COC(=O)c1c(C)[nH]c(C(=O)NCCc2ccc(S(N)(=O)=O)cc2)c1C | -2.7% | . | -2% | 1%
COCCN1C=C(C(=O)OC)C(c2ccc3c(c2)OCO3)C(C(=O)OC)=C1 | ? | -2 | -5% | -15%
CC(=O)Nc1sc(C)c(C)c1C(=O)OC1CCOC1=O (stereo unspecified) | 0.8% | -3 | 1% | -13%
COc1ccc(N2CCN(C(=O)CCc3ccc(S(=O)(=O)NC(C)(C)C)cc3)CC2)cc1 | -0.6% | 4 | 11% | 6%
Cc1ccc(S(=O)(=O)N2[C@@H](c3ccccc3F)C(C(=O)O)=CC[C@H]2c2cccc(Cl)c2)cc1 | -4.6% | . | . | -14%
O=C(COc1ncnc2sccc12)N1CCN(S(=O)(=O)c2ccc(Cl)cc2)CC1 | 2.8% | -1 | -7% | 16%
O=C(N/N=C/c1cnc2ccccc2n1)c1cccc(F)c1 | -1.0% | -9 | -40% | 11%
O=C(Nc1cccc2ccccc12)c1ccc([N+](=O)[O-])s1 | 0.2% | 3 | ? | 0%

Shown as a hit in Rango release inh, of those listed so far:
SMILES | Rango complex inh | GLA inh pH 4.5 | miR-21 reporter | Rango release inh
CC(=O)Oc1cccc(N2C(=O)c3cccc4c([N+](=O)[O-])ccc(c34)C2=O)c1 | ? | . | 1% | 1.8µM*

Some of the entries so far, with two lines to a compound:
Screens in order – Rango complex inh | GLA inh pH 4.5 | miR-21 reporter | Rango release inh
CC(C)(C)c1cc(CCC(=O)NNC(=O)c2ccncc2)cc(C(C)(C)C)c1O
→ 1.5% | . | . | -6%
COCCN(C(=O)Cc1cccs1)C(C(=O)NCc1ccc(OC)cc1)c1ccc(C)cc1 (stereo unspecified)
→ -2.8% | 3 | 15% | 17%
CC(C)(C)c1ccc(OCCC(=O)Nc2cccc(S(=O)(=O)N3CCOCC3)c2)cc1
→ 3.4% | . | 25% | -3%
CCN1C[C@@H]2[C@@H]3C(=O)N(C)C(=O)[C@@H]3[C@](CC)(C1=O)N2C(=O)c1ccc(C)cc1
→ -1.7% | . | . | -5%

More structures follow.
SMILES | Rango complex inh | GLA inh pH 4.5 | miR-21 reporter | Rango release inh
COc1ccc(C(=O)C2CCCN(C(=O)c3ccc(CSC)o3)C2)cc1F (stereo unspecified) | 0.8% | . | -3% | 1%
COc1cccc(-c2nc(CS(=O)(=O)CC(=O)NCCCc3ccccc3)c(C)o2)c1 | -1.7% | . | -10%&9% | 13%
COCC(=O)NC1CCN(CC(=O)Nc2ccccc2[N+](=O)[O-])CC1 | 0.4% | -3 | -9% | 0%
O=C(NCCS(=O)(=O)N1CCN(c2ccccc2F)CC1)c1ccc(F)c(F)c1 | -0.4% | . | . | 8%
COc1ccc(C(=O)c2c3ccccc3[n+]([O-])n2Cc2ccc(C(N)=O)cc2)cc1 | 6.6% | . | . | 1%
Cc1ccccc1OCCC(=O)Nc1ccc(S(=O)(=O)N(C)C2CCN(C)CC2)cc1 | 0.2% | . | . | 2%
CS(=O)(=O)c1ccc(Sc2nc3ccccc3[nH]2)c([N+](=O)[O-])c1 | 3.7% | 4 | 2% | 9%
Cn1c(=O)c2c(ncn2CC(=O)N2CCN(c3ccc([N+](=O)[O-])cc3)CC2)n(C)c1=O | -4.0% | -7 | 0% | -8%
COc1ccc(/C=N/NC(=O)CN2CCS(=O)(=O)CC2)cc1 | -2.8% | 6 | -2% | 19%
CC(=O)C(Sc1nnnn1-c1ccccc1)C(C)=O | -0.1% | -3 | 4% | 4%
Nn1cnc2sc3c(c2c1=O)CCC3 | 0.5% | 4 | -6% | 17%
O=[N+]([O-])c1ccc(NCc2ccccc2)nc1 | 2.2% | -12 | -52% | 7%
CCOc1ccccc1N(CC(=O)Nc1ccc(OC)c(OC)c1)S(=O)(=O)c1ccccc1 | -0.7% | . | -3% | 9%
Cc1ccc(C(=O)NC(=S)Nc2ccc3[nH]c(=O)[nH]c3c2)cc1 | -1.3% | -2 | -7% | -11%
COC(=O)CC(CP(=O)(O)CN(C)C=O)C(=O)OC (stereo unspecified) | -3.8% | -5 | -12% | 2%
Cc1ccc(S(=O)(=O)c2nc(-c3ccccc3)oc2N2CCC(C(N)=O)CC2)cc1 | -3.8% | . | 2% | 4%
CCn1c(C(=O)N2CCC(C(=O)NCc3ccc4c(c3)OCO4)CC2)cc2sccc21 | 2.1% | 4 | -7% | -8%
O=C(C=Cc1ccccc1O)c1ccccc1O | 7.6% | . | . | -4%
COc1cc(/C=N/n2cnnc2)ccc1OS(=O)(=O)c1ccccc1[N+](=O)[O-] | 3.5% | -27 | -12% | 9%
CC(C)CN(CCNC(=O)CN1C(=O)CSc2ccc(S(=O)(=O)N3CCOCC3)cc21)CC(C)C | 3.4% | -17 | 0%&-1% | 17%
N/C(=N\OC(=O)C1CCCCC1)c1ccccn1 | 2.9% | 13 | -42% | 2%
O=C(O)CCCCCN1C(=O)/C(=C\c2cn(-c3ccccc3)nc2-c2cccs2)SC1=S | ? | -8 | -4% | -23%
Cc1ccsc1/C=N/NC(=O)c1ccc2nc[nH]c2c1 | -1.9% | -8 | -42% | -1%
CCN(CC)CCNc1nc2ccccc2n1C | 0.2% | -4 | -3% | 0%
Cc1ccc(Cn2nnnc2CN2CCC(NC(=O)c3ccccc3F)CC2)cc1 | 0.7% | -3 | -12% | 29%
The results go on:
SMILES | Rango complex inh | GLA inh pH 4.5 | miR-21 reporter | Rango release inh
Cc1ccc(N(C)S(=O)(=O)c2cccc(C(=O)Oc3ccc4c(C)cc(=O)oc4c3)c2)cc1 | -2.4% | ? | -3% | 1%
CCCn1nc(C(=O)OCn2nnc3ccccc3c2=O)c2ccccc2c1=O | 2.2% | 2 | 0% | -1%
O=C(NNC(=O)c1ccc(Br)s1)c1csc(N2CCOCC2)n1 | -1.1% | . | . | 2%
CCc1ccc(Sc2cc(C(=O)NCCN3CCOCC3)c3ccccc3n2)cc1 | -1.2% | -5 | 19% | -3%
CC(C)=C(NC(=O)c1ccccc1)C(=O)NC(Cc1ccccc1)C(=O)O (stereo unspecified) | 0.3% | . | -1% | 12%
COc1ccc(S(=O)(=O)N2CCOC2CNC(=O)C(=O)NCc2ccc(F)cc2)cc1 (stereo unspecified) | -1.1% | . | 6% | -8%
Cc1cc(Nc2cc(F)ccc2C)n2nc(C)nc2n1 | 1.8% | 4 | -3% | 26%
CCN(CC(=O)Nc1ccc(Br)cc1)CC(=O)Nc1cc(C)on1 | 6.4% | . | . | -22%
O=C(NCc1ccccc1)c1nc(S(=O)(=O)Cc2ccccc2)ncc1Cl | -3.0% | . | ? | -3%
COc1ccc(CCNC(=O)CN2C(=O)CCSc3ccccc32)c(OC)c1 | -2.3% | . | -4% | -3%
CCOC(=O)C1=C(C)c2ccccc2OC1(C)C(=O)OCC (stereo unspecified) | -0.3% | -7 | . | 1%
